Assay outcomes (PubChem)
ugtP null kill = growth inhibition of S. aureus ugtP deletion strain | AID 1259309 | growth inhibition, % (test concentration not listed) | S. aureus RN4220 ugtP deletion, OD600 growth, 16 h; some inactives read as strong as hits | 0.54% of 330,000 active;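 active means z-score under -3 and OD600 up to 0.15 on both plates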;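 further: plate controls were untreated wells for no effect and antibiotic for full effect; wells of about 80 µL received 100 nL stock; the first replicate is given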
BJeLR viability = kills HRASV12-expressing BJeLR cells | BJeLR (HRASV12) viability, CellTiter-Glo ATP luminescence, 48 h; reference of the scale not given here | inhibition, % (test concentration not listed) | 0.17% of 300,000 active;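 active means replicate mean above 50%; inconclusive means above 50% but judged a plate artefact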;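 further: 50 nL library stock added to about 25 µL; numbers are from one replicate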
Sa RN4220 lethal = kills Staphylococcus aureus RN4220. 0.33% of 330,000 active. AID 1259311. S. aureus RN4220 growth, OD600, 16 h. inhibition, % (test concentration not listed);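 active means z-score of -3 or lower and OD600 up to 0.18 on both plates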;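 further: plate controls were untreated cells for no effect and reference antibiotic for full effect; stock transfer was 100 nL into about 80 µL; one replicate is shown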
Mtb hypoxia inh = reduces hypoxia-regulated biosensor signal in M. tuberculosis; M. tuberculosis hypoxia-regulated fluorescent reporter, fluorescence; fluorescence inhibition, % (concentration not given with the values); 0.1% of 300,000 active;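 active means 35 to 45% if threefold the growth effect, above 45% if 1.5-fold the growth effect; inactive means the rest, general growth blockers included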;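 further: wells of about 50 µL received 100 nL stock; 0% = vehicle wells and 100% = reference inhibitor wells; whole bacteria with a GFP reporter of the hypoxia response; strong numbers were not always called active; many hits fall short of the cut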
PrP UTR inh = suppresses PrP 5' UTR mRNA reporter expression | cell-based PrP 5' UTR mRNA reporter, plate reader | inhibition, % (test concentration not listed) | 0.35% of 340,000 active | AID 488862;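 active means every replicate at 50% or more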;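 further: 0 = median of the neutral control wells; tested in H4 reporter cells; numbers are from one replicate; inactives centre near -14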
Bead autofluor = compound fluorescence in toxin protease inhibitor counterscreen; compound autofluorescence counterscreen, microsphere flow cytometry; stronger effect = higher value; AID 624483; fluorescence intensity (no concentration beside the values); 3.1% of 360,000 active;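 active means at least 3 SD above the mean of all compounds, about 16000 in these data; inconclusive means too few beads counted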;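 further: 100 nL of 1 mM stock went into each well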
Mtb hypoxia inh growth = recorded beside Mtb hypoxia inh, whose call it bears; growth inhibition, %; measured here: M. tuberculosis growth (absorbance);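 0% = vehicle and 100% = reference antibiotic; read after six days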
Numbers without * were called inactive; u = inconclusive; x = not tested or not shown.

Under each structure – Mtb hypoxia inh	Bead autofluor	Sa RN4220 lethal	ugtP null kill	BJeLR viability	PrP UTR inh	Mtb hypoxia inh growth
1: Cc1cc(-n2c(C)cc(C(=O)COc3ccc(F)c(F)c3)c2C)no1
    -11	2972	0.4	0	x	-7	3
2: COc1cccc(N2CCN(C(=O)Cn3c(=O)oc4ccccc43)CC2)c1
    14	3035	4.2	4	2	4	6
3: O=C(Cc1ccc2c(c1)OCCO2)N1CCN(c2ccccc2)CC1
    13	4224	3.4	3	1	-3	8
4: CC(C)(C)C(=O)N1CCCC1C(=O)O (stereo not given)
    4	u	-0.3	2	0	5	-4
5: COc1ccc(C(=O)C2CCN(C(=S)NCC3CCCO3)CC2)cc1 (stereo not given)
    12	5576	4.4	13	-2	-12	6
6: COc1ccc2nc(NC(=O)c3ccc4ncsc4c3)sc2c1
    14	4582	9.4	13	9	-92	8
7: COc1ccccc1NC(=O)CC(=O)c1ccccc1
    2	3769	9.8	25	2	-38	0
8: CCN(CC)S(=O)(=O)c1ccc(Oc2ccccc2OC)cc1
    14	3758	2.8	7	8	-15	15
9: OC(CNCCc1ccccc1)c1ccccc1 (stereo not given)
    17	13288	5.8	0	-2	-19	6
10: O=c1c2ccccc2nc(-c2ccccc2)n1CCCn1ccnc1
    12	4088	0.6	4	7	4	8
11: Cc1ccc(NC(=O)C2CC2c2ccccc2)cc1 (stereo not given)
    7	3445	-0.8	7	-5	-39	7
12: C=CCn1c(CSCc2ccc(F)cc2)n[nH]c1=S
    8	3612	7.0	8	5	-13	2
13: COc1ccc(OC)c(NC(=O)CN(c2ccc(C(C)C)cc2)S(=O)(=O)c2c(C)noc2C)c1
    x	5499	7.5	-9	15	7	x
14: CN1CCN(c2ccc(S(=O)(=O)N3CCCCC3)cc2NC(=O)CCc2ccccc2)CC1
    5	5647	-1.6	4	x	x	5
15: COc1cccc(NC(=O)c2ccc3nsnc3c2)c1
    12	4969	1.4	1	1	-73	-5
16: CCC(C)COC(=O)C(C#N)c1nc2ccccc2nc1N1CCCCC1 (stereo not given)
    -3	21493*	8.9	0	-2	-16	12
17: O=C(CN(Cc1ccccc1Cl)C(=O)c1csnn1)NCc1ccccc1
    3	3790	0.8	13	0	-34	6
18: Cc1ccc(C)c(N(CC(=O)Nc2ccc(-c3nc4ccc(C)cc4s3)cc2)S(C)(=O)=O)c1
    5	2400	-5.4	3	0	-23	5
19: CC(C)(C)NC(=O)CN(C(=O)CS(=O)CC(=O)Nc1ccc(F)cc1)c1ccccc1 (stereo not given)
    6	11134	2.0	14	-11	-12	8
20: O=C(O)Cc1ccc(O)c(O)c1
    -4	6500	-2.1	-7	1	-8	-7
21: Cn1nc(C(F)(F)F)c(C#N)c1N1CCN(c2ccccc2F)CC1
    20	2490	14	17	-2	-7	3
22: Cc1ccc(C(=O)Cn2nnc(-c3ccccc3-n3cnnn3)n2)cc1
    4	10603	4.2	3	4	-51	12
23: O=C1NCCN/C1=C\C(=O)c1ccccc1
    9	6253	2.7	4	-5	-29	12
24: O=C(N1CCNCC1)N1CCOCC1
    4	x	5.4	8	9	x	3
25: COc1cc2c(cc1OC)CN(Cc1ccc(OC)c(C)c1OC)CC2
    7	11262	-3.4	-4	-8	-22	13
26: Cc1ccc(C2CC(c3cccs3)=NN2C(=O)CSC2=NN3CCCC(=O)N=C3S2)cc1 (stereo not given)
    5	5909	-5.6	-17	-4	-6	15
27: Cc1ccc(S(=O)(=O)CCC(=O)OCc2ccccc2F)cc1
    4	3918	8.2	-72	0	2	9
28: CC1=C(C(=O)OCC2CCCO2)C(c2ccccc2OC(C)C)C2=C(CC(c3ccco3)CC2=O)N1 (stereo not given)
    x	2916	2.6	-3	5	-3	x
29: CCCCn1nc2cc(C(=O)NC(C)C3CCCCC3)ccc2c1OCC (stereo not given)
    9	x	2.2	-8	x	x	7
30: CCC(C)n1c(=S)[nH]c2ccccc2c1=O (stereo not given)
    -7	2721	3.5	-18	-8	-16	5

Single records, from the list above. Screens in order: Mtb hypoxia inh, Bead autofluor, Sa RN4220 lethal, ugtP null kill, BJeLR viability, PrP UTR inh, Mtb hypoxia inh growth
`O=c1c2ccccc2nc(-c2ccccc2)n1CCCn1ccnc1` across the screens: 12, 4088, 0.6, 4, 7, 4, 8
`COc1ccc(OC)c(NC(=O)CN(c2ccc(C(C)C)cc2)S(=O)(=O)c2c(C)noc2C)c1` across the screens: x, 5499, 7.5, -9, 15, 7, x
`CCC(C)n1c(=S)[nH]c2ccccc2c1=O` (stereo not given) across the screens: -7, 2721, 3.5, -18, -8, -16, 5

Taken from above:
For ugtP null kill, `COc1ccc2nc(NC(=O)c3ccc4ncsc4c3)sc2c1` has the entry 13
For Mtb hypoxia inh growth, `O=C(Cc1ccc2c(c1)OCCO2)N1CCN(c2ccccc2)CC1` has the entry 8

The list goes on:
Under each structure – Mtb hypoxia inh	Bead autofluor	Sa RN4220 lethal	ugtP null kill	BJeLR viability	PrP UTR inh	Mtb hypoxia inh growth
31: O=C(NCc1cccc(OC(F)(F)F)c1)c1ccc2c(c1)S(=O)(=O)c1cc(Cl)ccc1C2=O
    3	4114	4.9	-9	x	-19	10
32: CC1=CC2(C)C(C3C(C)=CC2(C)C(=O)C3(C)O)C(C)(O)C1=O (stereo not given)
    8	3881	7.3	7	x	-7	18
33: CN(C)c1ccc(/C=N/NC(=O)CN(c2ccccc2Cl)S(C)(=O)=O)cc1Br
    x	4598	x	x	12	-2	x
34: C=C(C)C(=O)Nc1cccc(C2=NOC3(C2)CC(C(N)=O)N(C(=O)C=CC=CC)C3)c1 (stereo not given)
    5	x	4.6	-3	x	x	7
35: Cc1ccc(NC(=O)CSc2nnc(NC(=O)c3ccc(S(=O)(=O)N4CCOCC4)cc3)s2)cc1
    -7	9049	0.4	-5	-4	-6	-11
36: CCOC(=O)c1c(NC(=O)CSc2nnc(-c3ccccc3)o2)sc(C(C)=O)c1C
    13	3371	33	2	-1	52	0
37: Cc1ccc(OCCn2c(SCCO)nc3c(N)ncnc32)cc1
    -3	3822	6.5	7	16	-27	1
38: COc1ccc2nc3c(cc2c1)c(NC(=O)C1CCCO1)nn3CC(C)C (stereo not given)
    x	3620	0.2	7	1	-20	x
39: CC[C@]12C(=O)N(C)CC(C3C(=O)N(C)C(=O)C31)N2C(=O)c1ccc(F)cc1 (stereo not given in full)
    -1	x	3.7	-3	x	x	7
40: CCCC(=O)C1=C(O)C(C(=O)OC)C(C)(C)CC1=Nc1ccc(Br)cc1 (stereo not given)
    21	5420	-0.9	13	2	-19	-2
41: COC(=O)c1c(NC(=O)CC2Nc3ccccc3NC2=O)sc(C)c1C (stereo not given)
    -4	8226	4.7	-4	-3	-8	4
42: CC(Sc1nnc2n1CCCCC2)C(=O)Nc1ccc(S(N)(=O)=O)cc1 (stereo not given)
    8	6977	6.5	6	x	-1	-5
43: COc1ccc(C(=S)N2CCOCC2)cc1OC(=O)c1cc(OC)c(OC)c(OC)c1
    -1	4164	3.6	6	3	-2	-10
44: CCc1cccc(C)c1NS(=O)(=O)c1cccs1
    11	5566	5.5	17	4	-11	11
45: CCOc1cc(C(=O)NN=C(C)Cc2ccc(OC)cc2)cc(OCC)c1OCC
    9	x	2.3	7	x	x	12
46: CCOC(=O)/C(C(=Nc1ccccc1)Nc1ccccc1)=C(\C)O
    8	x	2.5	8	-6	-5	1
47: CCOc1cc(CNc2ccccc2)cc(Br)c1OCC(=O)NC(C)(C)C
    16	9058	-3.1	4	-1	-3	4
48: CC(=O)Nc1ccc(S(=O)(=O)NNC(=O)c2ccc([N+](=O)[O-])cc2)cc1
    3	3952	-1.8	8	1	-19	-7
49: COc1cc2[nH]c(=O)n(CCCC(=O)NCCc3ccccc3)c(=O)c2cc1OC
    -5	7411	0.9	-2	14	-1	3
50: O=S(=O)(NCCOc1ccccc1Cl)c1ccc2oc3ccccc3c2c1
    x	4926	-10	6	-4	-13	x
51: CN1C(=O)C(O)(CC(=O)c2cccnc2)c2ccccc21 (stereo not given)
    10	23918*	10	-7	-1	-17	14
52: COc1ccc(C(=O)Nc2cc3c(cc2OC)CCCC3)cc1Br
    x	3987	0.8	1	-2	-70	x
53: CCCCn1c(C(C)NC(=O)COC)nc2ccccc21 (stereo not given)
    10	6001	-0.1	2	-6	-19	-1
54: Cc1ccc(S(=O)(=O)N2CCCC(C(=O)NCC3CCCO3)C2)cc1 (stereo not given)
    -14	5602	-0.1	-8	1	-11	-4
55: CCn1cc(C(=O)OCC(=O)Nc2c(C)cccc2C)c(=O)c2ccc(C)nc21
    6	4739	-2.2	2	3	-10	-1
56: O=C(N/N=C/C=C/c1cccc([N+](=O)[O-])c1)C(O)c1ccccc1 (stereo not given)
    x	3301	x	x	0	-6	x
57: COC(=O)c1c(NC(=O)COC(=O)Cn2cnc3ccccc32)sc(C)c1C
    x	2402	2.5	4	13	-30	x
58: COc1ccc(-c2nnc(SCC(=O)NC(=O)Cc3ccccc3)n2C)cc1
    9	3919	2.6	2	x	-4	4
59: COc1cccc(-c2cc(C(=O)N3CCN(c4ccccc4OC)CC3)no2)c1
    3	5190	2.8	10	-5	-16	7
60: CCOC(=O)n1c(=O)n(Cc2c(Cl)cccc2Cl)c2ccccc21
    x	4240	2.3	19	2	-19	x
61: CCCc1cc(=O)n2[nH]c(-c3cc(OC)c(OC)c(OC)c3)nc2n1
    x	3922	1.4	-1	11	-17	x
62: Cc1cc(S(=O)(=O)N2CCOCC2)ccc1OCC(=O)NCc1ccco1
    4	3769	0.3	9	3	-38	-2
63: Cc1ccc(NC(=O)CSc2nccn2C)cc1F
    -4	4271	2.2	0	-5	-84	-3
64: CCOC(=O)c1c(C)n(C)c2cc(Br)c(C)cc12
    2	6921	-0.7	8	5	-24	2
65: O=S(=O)(NC1CC1)c1ccc(S(=O)(=O)N2CCN3CCCC3C2)cc1 (stereo not given)
    -2	9774	7.8	6	-12	-22	0
66: COCCSc1ccccc1C(=O)Nc1cc(C)ccn1
    3	8043	2.0	4	2	-12	6
67: CC1=CC(=NNC(=S)NCCc2ccccc2)CC(C)(C)C1
    6	x	5.7	-1	x	x	2
68: O=C(O)CC(C(=O)NC1CCCCC1)C1CCCO1 (stereo not given)
    9	22137*	-0.1	4	-1	-19	4
69: CN1CCc2nc(SCc3ccccc3Br)c(C#N)cc2C1
    23	3547	5.9	50	7	0	0
70: COc1ccc(Nc2ccnc(Nc3ccc(OC)cc3)n2)cc1
    2	2523	2.7	-15	15	-85	4
71: Cc1cc2nc(C3CCN(C(=S)NCC(C)C)CC3)[nH]c2cc1C
    16	2045	6.4	-3	-1	9	12
72: c1ccc(CCCCNCC2COc3ccccc3O2)cc1 (stereo not given)
    1	2529	-2.5	-9	8	-20	8
73: CCCC(=O)NC(=S)Nc1ccc(NC(=O)C(C)C)c(OC)c1
    8	2087	3.2	10	-2	6	4
74: CCOC(=O)N1CCC(NC(=O)Cn2cccc2C(=O)c2ccccc2)CC1
    2	2551	6.7	-5	-8	-14	4
75: COc1c(C)cc(Br)cc1C(=O)Nc1ccc(Cc2ccncc2)cc1
    -15	4070	-3.5	-10	6	0	-5
76: CC1(C)Cc2ccccc2-c2nnc(SCC(=O)N3CCc4ccccc43)n21
    2	24428*	1.7	1	-2	-24	-3
77: COCCN(C(=O)COC(=O)c1oc2ccc(OC)cc2c1C)c1c(N)n(Cc2ccccc2)c(=O)[nH]c1=O
    -6	6349	-4.9	1	-15	-1	-4
78: Cc1cccc(NC(=O)c2cc(-c3cc(C)cc(C)c3O)n[nH]2)c1
    5	3626	18	80	8	x	-4
79: CCCNC(=O)c1nn2cc(Br)cnc2c1Br
    14	4358	0.9	1	-6	-27	-5
80: O=[N+]([O-])c1ccc(S(=O)(=O)N2CCN=C2SCc2cccnc2)cc1
    x	1950	x	x	-1	-14	x
81: O=C(Cc1ccccc1)Nc1c(C(=O)N2CCCCCC2)cnn1-c1ccccc1
    x	x	0.0	5	0	-9	x
82: CC(C)Cn1c2c(c(O)c(C(=O)Nc3nccs3)c1=O)CCCC2
    x	2694	x	x	0	2	x
83: O=C(Nc1cccc(F)c1)C1CCCN(S(=O)(=O)c2cnc[nH]2)C1 (stereo not given)
    17	5688	1.9	-2	0	-7	12
84: CCOc1ccccc1N(CC(=O)NC1CCCCC1)S(=O)(=O)c1ccc(C)cc1
    -3	4216	2.1	3	-8	-10	-3
85: Cc1ccccc1/C=C\c1nc2ccccc2c(=O)n1Cc1ccccc1
    7	2522	-6.6	0	-3	-18	10

An unsorted share of the library; any-hit rate near 4%.
